Screening results deposited in PubChem BioAssay by Sanford-Burnham Center for Chemical Genomics.
HNF4A DNA FP: change in binding of human HNF4 alpha to DNA; activity change, % at 10 µM; 0.3% of 360,000 active; HNF4a-FITC DNA binding, fluorescence polarization, 1 h; P41235; in the data active = activity change above about 30%, passing the limit was not always enough;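 note: controls were the assay level and a saturating level of protein; the project sought stronger binding though the title names inhibitors; some compounds called inactive have numbers as strong as hits; positive values seem to mean higher polarization but the record does not say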
Target sequence (P41235 whole entry, looked up): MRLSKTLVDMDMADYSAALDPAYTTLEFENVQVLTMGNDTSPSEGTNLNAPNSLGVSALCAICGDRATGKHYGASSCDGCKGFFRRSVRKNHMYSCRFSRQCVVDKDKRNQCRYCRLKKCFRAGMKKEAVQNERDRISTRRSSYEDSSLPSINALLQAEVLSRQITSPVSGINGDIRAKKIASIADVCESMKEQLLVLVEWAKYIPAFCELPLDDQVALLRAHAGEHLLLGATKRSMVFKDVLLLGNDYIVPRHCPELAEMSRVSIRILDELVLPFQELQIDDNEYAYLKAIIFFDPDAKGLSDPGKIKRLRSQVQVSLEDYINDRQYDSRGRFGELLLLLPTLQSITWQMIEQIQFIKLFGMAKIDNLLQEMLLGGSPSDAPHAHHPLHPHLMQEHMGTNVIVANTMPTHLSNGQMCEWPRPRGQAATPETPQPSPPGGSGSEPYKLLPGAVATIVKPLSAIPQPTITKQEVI
The depositor's hits bear a star. A portion of the library (hit frequency here may not be typical).

smiles | HNF4A DNA FP
CC1(C(=O)Nc2cccc3cccnc23)CCN1Cc1csc2ccccc12 (stereo not given) | 7.9
CC(C)[C@H](COC=O)NC(=O)[C@H]1O[C@@H](n2ccc(N)nc2=O)[C@H](O)[C@@H]1O | 2.4
CSc1ccccc1NC(=O)C1(C)CCN1C(=O)Cc1ccc(Cl)cc1Cl (stereo not given) | -5.0
Cc1cccc(-c2cnc(C(O)Cc3ccccc3)[nH]2)c1 (stereo not given) | 1.4
COc1ccc(C2=Nc3ccccc3N(C(=O)Cc3cc(OC)cc(OC)c3)C2C(=O)NC(C)(C)C)cc1 (stereo not given) | 3.6
CCOC(=O)[C@]12CCC=C1N(Cc1ccccc1)C(=O)[C@H](CC(=O)NCc1cccs1)C2 | 3.8
CCO/C(C)=N/Oc1cccc(N(C)C)c1 | -6.0
COc1cccc(Cn2cnc(-c3ccccc3OC)c2-c2cccnc2)c1 | 1.2

Two consecutive entries out of the list so far, for reference:
smiles | HNF4A DNA FP
COc1ccc(C2=Nc3ccccc3N(C(=O)Cc3cc(OC)cc(OC)c3)C2C(=O)NC(C)(C)C)cc1 (stereo not given) | 3.6
CCOC(=O)[C@]12CCC=C1N(Cc1ccccc1)C(=O)[C@H](CC(=O)NCc1cccs1)C2 | 3.8

New compounds follow:
smiles | HNF4A DNA FP
Cc1ccc(C(O)c2ncc(-c3cccc(F)c3)[nH]2)cc1 (stereo not given) | -4.7
CC(C)c1ccc(NC(=O)Nc2nc(C(N)CCc3ccccc3)cs2)cc1 (stereo not given) | 2.6
CCCCNC(=O)C(NC(=O)c1ccc(C(F)(F)F)cc1)C(=O)c1ccccc1 (stereo not given) | 5.1
FC(F)(F)c1cccc(-c2cc3nc(NCCCn4ccnc4)ccn3n2)c1 | 3.8
O=C(NC(c1ccccc1)c1cnccn1)C1CCN(CCOc2ccc(Cl)cc2Cl)CC1 (stereo not given) | -1.9
CCN(CC)c1ncnc2c1ncn2[C@H]1CN(Cc2ccco2)C[C@@H](CO)O1 | 0.1
O=C(Nc1ccc(Cl)c(C(F)(F)F)c1)C1Cc2c(-c3ccc4c(c3)OCO4)ccnc2O1 (stereo not given) | -0.7
Cc1cccc(CN2CCN(C3CN(C4CCCCC4)S(=O)(=O)C3)CC2)c1 (stereo not given) | -2.0
FC(F)(F)c1cccc(-c2cc3nc(NC4CCCCC4)ccn3n2)c1 | 3.2
COc1ccccc1-c1ccc2c(c1)C(C)(Cc1ccccc1C#N)C(=O)N2 (stereo not given) | 0.6
COc1ccc(Cl)cc1N(CC(=O)NCc1ccccn1)S(=O)(=O)c1ccc(C)cc1 | -0.5
CC(C)C(C=Cc1ccccc1)=NNS(=O)(=O)c1ccccc1 | 5.8
O=C(O)c1cccc(S(=O)(=O)Nc2ccccc2Oc2ccccc2)c1 | -6.3
CC(C)(C)c1ccc(CC(=O)N2CCC2(C)C(=O)NS(=O)(=O)c2cccc(C#N)c2)cc1 (stereo not given) | -1.2
Cc1noc(C)c1S(=O)(=O)N(C)C[C@H]1OCCCC[C@@H](C)Oc2ccc(NC(=O)CCCN(C)C)cc2C(=O)N([C@H](C)CO)C[C@@H]1C | -6.5
O=C(c1cccnc1)N(Cc1ccccc1)C(c1ccccc1)c1nc2ccccc2[nH]1 (stereo not given) | -4.3
COC(=O)[C@@]1(Sc2ccc(C)cc2)CC(=O)N(c2ccc3c(ccn3C)c2)[C@@H]1c1ccccc1 | 13
COc1ccc(CN2C[C@@H](CO)O[C@@H](n3cnc4c(NCc5ccc(F)cc5)ncnc43)C2)cc1 | -0.8
CCc1nc2c(OCCC3CCCCC3)cccn2c1N(C)C(=O)c1ccc(C)cc1 | 2.9
COC(=O)C=CSC(=S)C1CCCC1=N (stereo not given) | 3.0
CCOC(=O)C1=C[C@@H](C(C)(C)C)N(S(=O)(=O)c2ccc(C)cc2)[C@H]1c1ccc(OC)cc1 | 4.8
CC1CCC(NC(=O)c2[nH]c(C(F)(F)F)nc2-c2ccccc2)CC1 (stereo not given) | -1.1
Cc1cccc(C)c1NC(=O)C1c2ccccc2OCC(=O)N1Cc1ccco1 (stereo not given) | 1.4
CCOC(=O)C1(C)CCN1C(=O)c1cccc(OC(F)(F)F)c1 (stereo not given) | -1.0
COc1cc(N)ccc1Nc1c2ccccc2nc2ccccc12 | 14
COc1ccccc1OCCCN1CCC(C(O)(c2ccccc2)c2ccccc2)CC1 | -0.9
CN(CC(=O)Nc1ccc(F)cc1)C(=O)COC(=O)c1nc(Cl)ccc1Cl | -0.6
O=C(CN1CCN(S(=O)(=O)c2ccc(Br)s2)CC1)NCC1CCCCC1 | 1.1
COCCNC(=O)C1(C)CCCN(C(=O)c2cccc(OC(F)(F)F)c2)C1 (stereo not given) | -1.0
OC(c1ccc(Cl)cc1)c1ncc(-c2ccccc2F)[nH]1 (stereo not given) | -2.5
CCCNC(=O)c1cc(C2CCCN(C(=O)c3ccc4ccccc4c3)C2)on1 (stereo not given) | 2.0
COc1ccc(NC(=O)c2cc(C3CCCCN3C(=O)c3ccc(Cl)cc3)on2)c(C)c1 (stereo not given) | 0.7
Cc1nc2ccccn2c(=O)c1NC(=O)c1ccc(Br)o1 | -1.9
CCCCCCn1cc(CN2CC(N3CCSCC3)CS2(=O)=O)nn1 (stereo not given) | 2.7
CC(C)(C)NC(=O)C1c2ccccc2OCC(=O)N1Cc1cccnc1 (stereo not given) | 3.2
CC(=O)c1ccc2c(c1)N(Cc1ccc3ccccc3c1)C(=O)C(C)S2 (stereo not given) | 0.2
CCCCn1nnnc1C(c1ccccc1)N1CCN(c2ccccc2)CC1 (stereo not given) | -5.7
CCCCCC(=O)N1C[C@H](O)[C@@H](n2cc(COC(=O)c3ccccc3)nn2)C[C@@H]1c1ccc(Cl)cc1 | 1.8
O=C(NCc1ccccc1)c1cc(C2COCCN2C(=O)c2cccs2)on1 (stereo not given) | 1.9
CCCS(=O)(=O)NC(=O)C1(C)CCN(C(=O)c2c(F)cccc2F)C1 (stereo not given) | 1.5
COC(=O)C[C@@H]1C=C[C@@H](NS(=O)(=O)c2ccccc2OC)[C@@H](CO)O1 | -1.1
COC(=O)[C@]12CCCCC=C1N(Cc1ccccc1)C(=O)[C@H](CC(=O)N1CCSCC1)C2 | 3.1
CN(Cc1ccco1)C(=O)CC[C@H]1O[C@@H](n2ccc(=O)[nH]c2=O)[C@H](O)[C@@H]1O | -3.7
CC1(C(=O)NS(=O)(=O)c2ccc(Br)cc2)CCN1C(=O)CC1CCCCC1 (stereo not given) | 1.6
CC(C)NC(=O)C1(C)CCN1C(=O)C1(c2ccccc2)CCCC1 (stereo not given) | 2.8
Cc1ccc(Cc2c(-c3ccccc3)nc3ccc(Cl)cn23)cc1 | 0.2
COC(=O)[C@]12CCCCC=C1N(CCC1=CCCCC1)C(=O)[C@H](CC(=O)NCc1ccc(C)o1)C2 | 1.3
Cc1ccc(S(=O)(=O)N2[C@H](c3ccc(Cl)cc3)CC(=O)[C@@H]3CN(S(=O)(=O)c4ccccc4C)[C@H](c4ccc(Cl)cc4)C[C@@H]32)cc1 | 8.4
CSCCC(C(=O)Nc1c(C)cccc1C)n1c(-c2ccc(C(F)(F)F)cc2)nc2ccccc21 (stereo not given) | -0.2
CCOC(=O)C1(C)CCCCCN1C(=O)c1ccc(OC)c(C(F)(F)F)c1 (stereo not given) | 1.6
COc1ccccc1CNc1nc(NCCOc2ccccc2Cl)c2sccc2n1 | -1.9
COC(=O)c1ccc(CN2C(=O)C(Cc3ccccc3)ON=C2c2ncccc2C)o1 (stereo not given) | 1.6
O=c1[nH]cc(S(=O)(=O)N2CCN(c3ccc(F)cc3)CC2)c(=O)[nH]1 | 1.6
CC(=O)Nc1ccc(CNc2nc(NCC3CC3)nc3ccsc23)cc1 | 2.7
CN(C)c1ccc(-c2[nH][nH]c(=O)c2NC(=O)c2ccccn2)cc1 | 3.4
CCOC(=O)C1(C)CCCN1C(=O)c1ccccc1F (stereo not given) | 1.7

(more compounds)
smiles | HNF4A DNA FP
CC(C)C[C@H]1CN([C@@H](CC(C)C)CN2CCC[C@H]2CN2C(=O)C(=O)NC[C@@H]2Cc2ccc(O)cc2)C(=O)C(=O)N1CCc1ccccc1 | -1.7
CCCCCCCCN1C(=O)[C@H](CC(=O)NCc2ccc(C)o2)C[C@@]2(C(=O)OCC)CCC=C12 | 7.5
Cc1ccc(-c2cc(NC=O)c3ncc(-c4cccc(C(=O)N(C)C)c4)n3c2)cc1 | 8.1
N#Cc1ccc(S(=O)(=O)N2CCCCC2c2cc(C(=O)NCc3cccnc3)no2)cc1 (stereo not given) | 2.6
COCCNC(=O)c1cccc2c(-c3cccc(C(N)=O)c3)coc12 | 1.2
O=C(Nc1nnc([C@@H]2C[C@H](O)[C@@H](CO)O2)s1)c1cccc(C(F)(F)F)c1 | -3.0
Cc1cccc(C)c1-n1nnnc1C1(C)CCC(=O)N1CCc1ccccc1F (stereo not given) | 4.3
CCCCOCCCNC(=O)C[C@@H]1C[C@@]2(C(=O)OCC)CCC=C2N(Cc2ccco2)C1=O | 3.2

Look-ups from the list.
CCCCOCCCNC(=O)C[C@@H]1C[C@@]2(C(=O)OCC)CCC=C2N(Cc2ccco2)C1=O in HNF4A DNA FP has 3.2
Cc1ccc(-c2cc(NC=O)c3ncc(-c4cccc(C(=O)N(C)C)c4)n3c2)cc1 in HNF4A DNA FP has 8.1
Cc1cccc(C)c1-n1nnnc1C1(C)CCC(=O)N1CCc1ccccc1F (stereo not given) in HNF4A DNA FP has 4.3
CC(C)C[C@H]1CN([C@@H](CC(C)C)CN2CCC[C@H]2CN2C(=O)C(=O)NC[C@@H]2Cc2ccc(O)cc2)C(=O)C(=O)N1CCc1ccccc1 in HNF4A DNA FP has -1.7

Continued:
smiles | HNF4A DNA FP
COc1ccc(C2=Nc3ccccc3N(C(=O)c3ccc(C(F)(F)F)cc3)C2C(=O)NCc2ccccc2)cc1 (stereo not given) | 1.8
c1ccc2sc(-n3cc(C4CCCCC4)nn3)nc2c1 | -0.6
CC1=C(C(=O)N(C)C)CC(CC(=O)NCCc2ccccn2)C(=O)N1CCC1=CCCCC1 (stereo not given) | -2.8
CC(=O)OC[C@@H]1CN(Cc2ccccc2)C[C@H](n2cnc3c(N4CCN(c5ccccc5)CC4)ncnc32)O1 | 3.2
CC(C)C[C@H]1COc2cc(N3CCN(Cc4ccccc4F)CC3)ccc2S(=O)(=O)N1 | 4.0
COC(=O)[C@H](CC(C)C)NC(=O)/C=C/[C@H]1O[C@@H](n2cc(C)c(=O)[nH]c2=O)C[C@@H]1O | 2.7
COc1cc(CNC(=O)c2cc(-c3cc(F)ccc3OC(C)C)n[nH]2)cc(OC)c1 | 1.9
CC(C)C[C@H]1CNC(=O)C(=O)N1C[C@H]1CCCN1C[C@H](Cc1ccc(O)cc1)N1C[C@H](CC(C)C)N(CC2CCCCCC2)C(=O)C1=O | 4.1
O=C(Nc1cccc(OC(F)(F)F)c1)[C@@H]1O[C@H](CO)[C@H](O)[C@H](O)[C@H]1O | -1.8
Cc1ccc(F)cc1C(=O)N1CCCC1(C)C(=O)NCC(C)C (stereo not given) | -2.5
CC(C)NC(=O)N(C)C[C@@H]1Oc2cc(Br)ccc2S(=O)(=O)N([C@@H](C)CO)C[C@H]1C | -0.1
CCCCn1nnnc1C1(C)CCC(=O)N1CCc1ccc(OC)c(OC)c1 (stereo not given) | 1.4
COCCNC(=O)C1CCCN(C(=O)c2ccnc(Cl)c2)CC1 (stereo not given) | 1.9
C[C@H](CO)N1C[C@H](C)[C@@H](CN(C)S(=O)(=O)c2ccccc2)OCc2cn(nn2)CCCC1=O | -5.2
O=C(NCc1cccnc1)c1cc(C2CCCCN2C(=O)OCCF)on1 (stereo not given) | 4.1
Cc1cc2oc(=O)cc(CN(C)Cc3ccccc3)c2cc1C | -2.9

Shown field by field: three of the compounds above
O=C(Nc1cccc(OC(F)(F)F)c1)[C@@H]1O[C@H](CO)[C@H](O)[C@H](O)[C@H]1O
  HNF4A DNA FP: -1.8
Cc1ccc(F)cc1C(=O)N1CCCC1(C)C(=O)NCC(C)C (stereo not given)
  HNF4A DNA FP: -2.5
CC(C)NC(=O)N(C)C[C@@H]1Oc2cc(Br)ccc2S(=O)(=O)N([C@@H](C)CO)C[C@H]1C
  HNF4A DNA FP: -0.1

Further results.
smiles | HNF4A DNA FP
O=C1c2ccccc2C(c2nnnn2-c2ccc3c(c2)OCCO3)N1CCc1ccccc1F (stereo not given) | 2.3
COC(=O)C1=CN(c2ccc(Oc3ccccc3)cc2)C(N)=C(C#N)C1c1ccc(-c2ccccc2)cc1 (stereo not given) | 7.0
Cc1ccccc1-c1csc(C(C)(O)c2ccc(F)c(F)c2)n1 (stereo not given) | -3.2
COc1ccccc1CC1(C)C(=O)Nc2ccc(OC(F)(F)F)cc21 (stereo not given) | 1.2
CCNC(=O)C1(C)CCN(C(=O)c2ccc(OC)c(OC)c2)C1 (stereo not given) | 5.8
CCCNC(=O)C1(C)CCN(Cc2ccc(-n3ccnc3)cc2)C1 (stereo not given) | -2.0
Cc1ccc(S(=O)(=O)N2C[C@]3(O)C[C@@H]4C(=O)N(c5ccccc5)C(=O)[C@@H]4C[C@]3(OC(=O)NCc3ccco3)C2)cc1 | -0.6
CC(=O)Nc1cc(-c2ccc(N(C)C)cc2)cn2c(-c3ccc(F)c(Cl)c3)cnc12 | 18
O=C1NC[C@H](CCCCN2C[C@H](Cc3ccccc3)N(CCC3CCCCC3)C(=O)C2=O)N(CC2CCCCC2)C1=O | 2.0
Cc1cc(NC(=O)CS(=O)(=O)c2cn(Cc3cccc(C(F)(F)F)c3)c3ccccc23)no1 | 1.8
CCc1nc2c(OCc3ccc(C(=O)N(C)C)cc3)cccn2c1N(C)C(=O)c1ccc(C)cc1 | -1.2
CCCCC1Cc2[nH][nH]c(=O)c2C(c2ccc(F)cc2)O1 (stereo not given) | -4.6
N#Cc1cccc(NC(=O)c2cc(C3CCCCN3C(=O)c3ccccn3)on2)c1 (stereo not given) | 4.7
COC(=O)C1=CN(c2cccc(OCc3ccccc3)c2)C(N)=C(C#N)C1c1ccccc1 (stereo not given) | 4.2
CCCCC[C@H](C)N1C[C@@H](COCc2ccccc2)Oc2cc(N3CCC[C@H]3CO)ccc2S1(=O)=O | -2.5
CC(=O)c1cccc(-c2cnc3c(NC=O)cc(-c4ccc(F)cc4)cn23)c1 | 8.6
CC1(C(=O)Nc2ccc3c(c2)OCCO3)CCN1Cc1ccccc1OC(F)F (stereo not given) | -1.9
